# Screening results from PubChem BioAssay.
# PABP polyA inh = PABP poly(A) RNA binding inhibitors, primary screen, biochemical, fluorescence polarization, uHTS | actives 1% (n = 290,000) | AID 2014, 2009 | Polyadenylate-binding protein 1 (Homo sapiens), P11940 | inhibition, % at 35 µM;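 active means 50% or more with normal probe brightness, or confirmed in later tests; about a fifth of its hits are not listed in these tables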;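 further: calls also rest on retests at 20 µM and on dose response follow-up; controls were probe without protein and protein plus probe with vehicle; some compounds called inactive have numbers as strong as hits; many hits fall short of the cut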
# Target sequence (P11940 whole entry, looked up): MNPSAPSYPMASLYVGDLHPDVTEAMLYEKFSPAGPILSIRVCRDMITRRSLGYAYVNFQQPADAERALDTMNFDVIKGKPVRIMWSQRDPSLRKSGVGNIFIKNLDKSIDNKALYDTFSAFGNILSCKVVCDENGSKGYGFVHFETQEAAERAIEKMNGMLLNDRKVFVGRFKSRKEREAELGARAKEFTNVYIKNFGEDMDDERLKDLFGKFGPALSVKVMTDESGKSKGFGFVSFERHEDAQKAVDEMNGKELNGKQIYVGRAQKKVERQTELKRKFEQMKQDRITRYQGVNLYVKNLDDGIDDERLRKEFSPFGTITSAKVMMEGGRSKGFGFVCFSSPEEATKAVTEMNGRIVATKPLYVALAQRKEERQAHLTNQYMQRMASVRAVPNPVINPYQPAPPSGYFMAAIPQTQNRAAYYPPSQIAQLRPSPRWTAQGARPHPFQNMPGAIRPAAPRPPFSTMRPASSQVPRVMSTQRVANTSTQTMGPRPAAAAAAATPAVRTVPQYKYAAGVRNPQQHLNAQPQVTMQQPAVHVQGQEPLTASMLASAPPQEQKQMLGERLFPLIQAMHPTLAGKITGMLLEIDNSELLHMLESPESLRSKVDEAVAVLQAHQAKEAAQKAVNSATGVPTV
# UUG fidelity = modulators of yeast start codon fidelity, primary screen, whole organism, S. cerevisiae, single point, plate reader | S. cerevisiae UUG-firefly luciferase reporter, luminescence/redox ratio | activity score, % at 18.7 µM | actives 0.13% (n = 350,000);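 active means replicate mean at a twofold rise or more, about +100% in these data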;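 further: firefly luciferase made from a UUG start codon reports start codon fidelity; reporter light over untreated wells divided by growth signal over untreated wells; some hits fall short of that in this replicate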
# CSC inhib = cancer stem cell viability inhibitors, primary screen, luminescence; actives 1.1% (n = 300,000); inhibition, % at 7.5 µM; AID 2717, 2010; cancer stem cell-like cells viability;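 active means mean at 75% or more and at least half the replicates too; tested in HMLE shEcad cells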;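 further: 0% = median of negative and 100% = median of positive control wells; the first replicate is given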
# Rce1 inh = yeast Rce1p protease inhibitors, primary screen, biochemical, fluorescence, cell-free homogeneous; AID 2563, 2010; yeast membranes, quenched prenylated peptide cleavage fluorescence; calls only; CAAX prenyl protease 2 (Saccharomyces cerevisiae (strain ATCC 204508 / S288c)), Q03530; actives 0.27% (n = 290,000);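 active means fall in fluorescence gain of 50% or more versus controls, with final raw signal at or below 3038400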;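 further: plate controls were neutral control wells for no effect and wells lacking membranes for full effect; tested at 10 µM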
# Target sequence (Q03530 whole entry, looked up): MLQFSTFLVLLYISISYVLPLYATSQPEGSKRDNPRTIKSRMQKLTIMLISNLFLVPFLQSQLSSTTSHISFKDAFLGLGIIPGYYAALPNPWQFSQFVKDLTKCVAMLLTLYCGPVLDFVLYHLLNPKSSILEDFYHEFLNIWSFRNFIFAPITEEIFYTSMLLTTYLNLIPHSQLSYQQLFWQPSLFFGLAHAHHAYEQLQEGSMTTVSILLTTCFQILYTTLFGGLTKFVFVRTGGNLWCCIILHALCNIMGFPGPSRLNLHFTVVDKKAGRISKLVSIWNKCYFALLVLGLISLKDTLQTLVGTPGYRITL
# eIF4H FP inh = human eIF4H binding inhibitors, primary screen, translation initiation inhibitor project, biochemical, uHTS, fluorescence polarization; inhibition, % at 35 µM; eIF4H fluorescence polarization binding assay; actives 0.94% (n = 290,000); Eukaryotic translation initiation factor 4H (Homo sapiens), Q15056; AID 2012, 2009;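 active means 50% or more with normal probe brightness, or confirmed in later tests; about a fifth of its hits are not listed in these tables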;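 further: calls also rest on retests at 20 µM and on dose response follow-up; 0% = protein and probe with vehicle and 100% = probe without protein; strong numbers were not always called active; many hits fall short of the cut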
# HIV Env fusion = inhibitors of HIV-1 Env-driven cell-cell fusion, primary screen, HeLa-JRFL effector, CEM21 target cells, luciferase; AID 651610, 2012; actives 1.1% (n = 360,000); inhibition, % at 12.3 µM;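 active means mean replicate inhibition score of at least 50 and every replicate individually at or above 50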;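 further: 0% = plate neutral controls and 100% = maraviroc near 300 nM; one replicate is shown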
# MT1-MMP act inh = blockers of MT1-MMP proenzyme processing, primary screen, HT1080 RFP-PRO-GFP cells, GFP/RFP fluorescence. AID 651647, 2012. actives 0.061% (n = 360,000). GFP/RFP ratio fluorescence, overnight; percent of plate control window, DMSO zero. Matrix metalloproteinase-14 (Homo sapiens), P50281. GFP/RFP ratio change, % at 20 µM;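 active means GFP/RFP ratio change of at least 30% with cell ATP level not reduced by more than half and red fluorescence within 50% of control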; further: strong numbers were not always called active
#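 Assay system: HT1080 RFP-PRO-GFP cells | Dosing: 20 µM single dose, 1% DMSO | Incubation: Cells overnight before dosing, compound overnight, 37 °C, 5% CO2 | Evaluation: GFP/RFP fluorescence ratio | Control set: DMSO-only wells and HT1080 RFP-L50D-GFP cell wells as references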
# MT1-MMP act inh RFP = further read-out of MT1-MMP act inh, marked with its call; RFP signal change, %; measured here: RFP expression control read;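 0 = vehicle wells; hits needed this value within 50% of zero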
# Active calls of the source: *; i = inactive; nt = not tested or not shown; & = joins results of further samples. An excerpt; rates above refer to the full screens.
SMILES,PABP polyA inh,UUG fidelity,CSC inhib,Rce1 inh,eIF4H FP inh,HIV Env fusion,MT1-MMP act inh,MT1-MMP act inh RFP
Cc1ccc(C)c(S(=O)(=O)N2CCCC2CNC(=O)C(=O)NCc2ccccc2)c1 (stereo not drawn),nt,8.7,-0.6,i,nt,-0.9,-0.9,-2.7
CSCCC(C(=O)N(C)CC(=O)Nc1cccc(F)c1)N1C(=O)c2ccccc2C1=O (stereo not drawn),nt,-0.7,-21.1,nt,nt,19.0,2.0,1.2
C#CCOCCOCCOCCNc1nc(N2CCN(C(=O)[C@H](CC(N)=O)n3cc(C(N)[C@@H](C)CC)nn3)CC2)nc(N2CCN(C(=O)[C@H](CCCCN)n3cc([C@@H](N)CC(N)=O)nn3)CC2)n1 (stereo partly drawn),nt,7.5,-8.6,nt,nt,15.3,0.0,-0.6
CC(=O)N1N=C(c2ccc(C)cc2)OC1c1ccc(Br)cc1 (stereo not drawn),0.9,nt,-12.5,i,6.7,-55.7,-0.7,-2.2
COc1ccc(Br)cc1C1NC(=O)c2c(sc3c2CCN(C)C3)N1 (stereo not drawn),63.7*,-7.5,nt,nt,99.6*,nt,-8.5,-5.8
O=C(Cc1c[nH]c2ccccc12)Nc1cccc(S(=O)(=O)N2CCCCC2)c1,12.9,nt,-4.5,i,-1.6,nt,nt,nt
O=C1NCCN(Cc2ccc(F)cc2)C1CC(=O)N1CC=C(c2ccccc2)CC1 (stereo not drawn),34.4,-6.7,-10.2,i,31.9,1.6,-3.1,3.1
O=C(CN1C(=O)NC(CCc2ccccc2)C1=O)N1CCCCCC1 (stereo not drawn),nt,3.5,-20.8,nt,nt,0.7,4.0,1.7
O=C(O)c1ccc(-c2nnc(-c3ccc([N+](=O)[O-])cc3)o2)cc1,4.6,-4.1,-5.6,i,-3.0,-5.0,5.5,2.9
COc1ccc2c(c1)c(C(=O)O)c(C)n2CCc1ccc(OC)c(OC)c1,-5.0,-2.0,-5.6,i,2.0,9.7,-3.7,-3.2
C=CCN1C(=O)C(O)(CC(=O)c2ccccc2)c2ccccc21 (stereo not drawn),3.2,-22.0,-4.6,i,-6.2,nt,4.0,3.8
COc1ccc(-c2nc(C#N)c(NCc3ccc(F)cc3)o2)cc1OC,-12.2,1.7,1.1,i,-4.2,nt,-2.1,-21.5
Cn1ccc(NC(=O)Nc2ccc(Cl)cc2Cl)n1,26.6,-20.5,-20.2,i,5.7,nt,-3.6,-1.5
CCc1nnc(NC(=O)C2CC(=O)N(C3CCCCC3)C2)s1 (stereo not drawn),-2.2,-0.4,-6.4,i,-1.9,4.4,-1.2,3.2
O=C(CN(C(=O)c1csnn1)c1ccc(Cl)cc1)NC1CCCC1,-3.0,-4.3,-17.4,i,-1.4,-5.2,-1.9,3.7

# Given bar-delimited: six of the compounds above.
canonical_smiles | PABP polyA inh | UUG fidelity | CSC inhib | Rce1 inh | eIF4H FP inh | HIV Env fusion | MT1-MMP act inh | MT1-MMP act inh RFP
C#CCOCCOCCOCCNc1nc(N2CCN(C(=O)[C@H](CC(N)=O)n3cc(C(N)[C@@H](C)CC)nn3)CC2)nc(N2CCN(C(=O)[C@H](CCCCN)n3cc([C@@H](N)CC(N)=O)nn3)CC2)n1 (stereo partly drawn) | nt | 7.5 | -8.6 | nt | nt | 15.3 | 0.0 | -0.6
COc1ccc2c(c1)c(C(=O)O)c(C)n2CCc1ccc(OC)c(OC)c1 | -5.0 | -2.0 | -5.6 | i | 2.0 | 9.7 | -3.7 | -3.2
O=C(O)c1ccc(-c2nnc(-c3ccc([N+](=O)[O-])cc3)o2)cc1 | 4.6 | -4.1 | -5.6 | i | -3.0 | -5.0 | 5.5 | 2.9
COc1ccc(Br)cc1C1NC(=O)c2c(sc3c2CCN(C)C3)N1 (stereo not drawn) | 63.7* | -7.5 | nt | nt | 99.6* | nt | -8.5 | -5.8
CSCCC(C(=O)N(C)CC(=O)Nc1cccc(F)c1)N1C(=O)c2ccccc2C1=O (stereo not drawn) | nt | -0.7 | -21.1 | nt | nt | 19.0 | 2.0 | 1.2
O=C1NCCN(Cc2ccc(F)cc2)C1CC(=O)N1CC=C(c2ccccc2)CC1 (stereo not drawn) | 34.4 | -6.7 | -10.2 | i | 31.9 | 1.6 | -3.1 | 3.1

# More structures follow:
SMILES,PABP polyA inh,UUG fidelity,CSC inhib,Rce1 inh,eIF4H FP inh,HIV Env fusion,MT1-MMP act inh,MT1-MMP act inh RFP
COCCN(C(=S)Nc1cccc(OC)c1)C1CCN(C(C)C)CC1,2.2,nt,8.2,i,4.8,-30.1,0.4,1.8
O=C(Nc1ccccc1)N1CCSc2ccccc21,1.9,-17.0,-19.8,i,-7.1,-8.3,1.5,1.5
Cc1cc(NS(=O)(=O)c2ccccc2)no1,5.8,-10.9,-8.8,i,-0.5,-0.6,-0.2,4.2
O=S(=O)(Cc1ccccc1)Nc1ccccc1Br,-3.8,7.5,8.2,i,-9.8,-1.2,0.8,0.5
O=C(Cn1nc(-c2ccccc2)ccc1=O)NCCCN1CCOCC1,3.9,-7.1,-2.0,i,0.0,-45.8,1.2,2.0
CCC(CC)c1nnc(NC(=O)C2CC(=O)N(C3CCCC3)C2)s1 (stereo not drawn),1.5,5.7,-5.2,i,8.2,5.1,1.6,-0.5
CCOC(=O)C(=O)N1CCC(Cc2ccccc2)CC1,12.3,nt,-7.1,i,3.4,26.9,8.6,0.2
CCCCN(CCNP(=O)(OCC)OCC)CP(=O)(OCC)OCC,8.1,-8.1,-5.9,i,-2.0,nt,2.0,3.8
COc1ccc(C)cc1NC(=O)CN1C(=O)COc2ccc(S(=O)(=O)N3CCCCCC3)cc21,-4.7,-17.4,-8.6,i,-6.5,4.3,3.3,-0.7
Cc1ccc(C(=O)O)cc1-c1ccc(/C=C2/NC(=O)N(c3ccccc3)C2=O)o1,78.9*,-8.7,-5.5,i,78.7*,-30.2,-10.0,6.2
CCOc1ccccc1NC(=O)C(c1ccccc1)N1CCN(CC(=O)N2CCOCC2)CC1 (stereo not drawn),nt,-11.7,nt,nt,nt,1.4,-1.1,1.7
COC(=O)C1=C(C)NC(=O)NC1c1ccc(OC(=O)c2ccco2)cc1 (stereo not drawn),-2.0,nt,-6.3,i,4.3,-17.3,-3.6,-0.3
Cc1ccc(NS(=O)(=O)c2ccc(C(=O)OCC(=O)Nc3cc(C)on3)cc2)cc1,-2.3,-20.6,nt,i,3.0,29.1,-1.6,2.4
CC(C)CN(C(=O)COC(=O)c1ccc(Br)cc1)c1c(N)n(Cc2ccccc2)c(=O)[nH]c1=O,nt,nt,-12.9,i,nt,-6.6,-4.1,-4.5
CC1Cc2ccccc2N1C(=O)C1CCCCN1S(=O)(=O)c1ccccc1 (stereo not drawn),3.7,nt,nt,i,1.4,42.7,-1.6,-3.2
Cc1cccc(CSCC(=O)N2CCN(S(=O)(=O)c3ccccc3C#N)CC2)c1,nt,-8.4,nt,nt,nt,4.5,1.5,-1.4
Oc1c(CN2CCOCC2)ccc2ccccc12,1.0,9.8,nt,i,-8.2,-6.6,-8.8,-1.4
Cc1cc(C)cc(-n2ncc3c2CCCC3NC(=O)C2(C(N)=O)CC2)c1 (stereo not drawn),-7.6,-12.4,-11.5,nt,-7.4,19.1,3.8,-18.9
COc1ccc(NC(=S)Nn2cnnc2)c(OC)c1,5.9,-23.5,2.9,i,7.2,3.8,8.5,5.0
O=C(O)/C=C/C(=O)Nc1ccc(C(=O)c2ccccc2)cc1,1.9,nt,-7.7,i,1.8,-6.8,-0.9,1.0
COc1ccc(C(=O)NCCn2cc(SCC(=O)NCc3ccco3)c3ccccc32)cc1,-10.7,-13.4,3.4,i,-2.0,nt,-6.9,-4.6
O=S(=O)(Cc1cc(N2CCOCC2)nc(-c2ccccn2)n1)c1ccccc1,13.4,nt,-13.4,i,-2.1,7.6,-11.9,-2.1
CCCc1nc(SCC(=O)c2ccc(F)cc2)c2ccccc2n1,5.3,nt,41.1,i,1.8,18.9,-2.9,-3.5
Cc1[nH]c(=O)[nH]c(=O)c1S(=O)(=O)Nc1ccc(Cl)c([N+](=O)[O-])c1,8.7,-10.1,2.2,i,1.0,3.9,0.8,1.7
CCc1nnc(NC(=O)CCC(=O)N2CCCC(O)C2)s1 (stereo not drawn),1.4,-6.5,-3.9,i,-1.9,-0.8,1.2,2.1
Cn1c2ccccc2c2cc(C(=O)NNC(=O)CCl)sc21,-7.0,nt,16.3,i,-5.3,-11.3,0.5,4.1
CC(=O)N1CCN(c2ccc(NC(=S)NC(=O)c3ccc(C)c([N+](=O)[O-])c3)cc2)CC1,-6.0,nt,-10.6,i,-0.9,2.1,0.6,-9.4
CN(C)c1ccnc(Nc2ccc(F)cc2)c1C#N,3.4,-18.3,9.6,nt,-8.0,2.5,4.4,2.0
CCOc1ccccc1NC(=O)COc1cccc(-n2cnnn2)c1,nt,-0.7,-6.3,i,nt,-113.4,6.1,-1.6
CC(=O)N(CN1C(=O)c2ccc([N+](=O)[O-])cc2C1=O)c1cccc(C(=O)O)c1,-7.7,nt,-21.7,i,-15.2,8.9,-4.7,3.1
Cc1ccc(CNC(=O)C2(C)CCN2C(=O)Cc2ccc(C(C)(C)C)cc2)cc1 (stereo not drawn),nt,-2.2,nt,nt,nt,37.2,8.2,-0.1
C=C(C)c1sc(-c2ccccc2)nc1C,nt,nt,0.6,i,nt,3.2,nt,nt
Clc1ccc(Oc2nc3c(Cl)cccc3s2)cc1Cl,4.1,-17.3,-1.0,i,3.0,-12.8,-0.6,1.5
Cc1nc2ccc(NC(=O)c3cccc(S(=O)(=O)N4CC(C)OC(C)C4)c3)cc2s1 (stereo not drawn),3.1,-12.1,-7.4,i,-5.3,nt,-5.7,-18.0
CN(C)C(CNc1ncnc2ccccc12)c1c(F)cccc1Cl (stereo not drawn),6.8,-16.2,-6.6,i,7.8,0.0,0.3,-2.4
CC(=O)c1cccc(NC(=O)CSc2nnnn2C2CCCC2)c1,9.4,-12.7,nt,i,-14.2,5.7,1.5,-0.2
O=C(NCCc1ccccc1)C1CCN(S(=O)(=O)c2ccccc2)CC1,-2.2,-8.8,-11.4,i,-3.4,-9.5,-0.7,-0.1
O=C(Cc1ccc(Br)cc1)OCC(=O)N1CCOCC1,nt,-12.1,1.9,nt,nt,9.3,1.5,0.7
COCCCn1c(=O)c2ccccc2c2ccccc2c1=O,-9.7,-3.0,5.5,i,-8.7,-51.6,1.8,2.0
CCNc1nc(SC(C(C)=O)C(C)=O)nc(N(C)C)n1,10.9,-3.2,-5.8,i,2.5,nt,7.2,4.1
c1ccc(-c2nc(NCc3cccs3)c3ccccc3n2)cc1,5.4,-9.4,-2.2,i,-7.7,8.6,3.8,2.0
C=C(Br)CN1CCN(CC(=C)Br)CC1,7.9,-13.1,4.6,i,10.4,nt,4.5,11.9
COc1ccc(CCN2CCC(Nc3nc4ccccc4n3Cc3ccc(F)cc3)CC2)cc1,-1.0,1.3&-8.2,55.9,i,0.1,-6.8,-0.4,-0.8
Cc1ccc(NC(=O)NCc2ccncc2)cc1Cl,-4.4,nt,nt,i,-9.0,15.5,0.8,-0.6
CCOC(=O)C1CCCN(Cc2cc(OC)c(O)c(OC)c2)C1 (stereo not drawn),4.8,nt,-17.2,i,-4.7,-12.9,1.7,1.9
CCN1C[C@@H]2[C@@H]3C(=O)N(Cc4ccccc4)C(=O)[C@@H]3[C@](C)(C(=O)OC)N2C1=NC1CCCCC1,nt,-30.3,nt,nt,nt,14.8,5.7,5.2
CCCCn1c(SCc2ccc(C(=O)OC)o2)nc2cc(S(N)(=O)=O)ccc21,10.2,-1.7,nt,i,6.2,nt,1.9,-17.8
